Source: PubChem BioAssay (several laboratories)
MLL AF4-AF9 inh: inhibitors of AF4 peptide binding to AF9, primary screen, biochemical, AlphaScreen, biotin-AF4 peptide, FLAG-AF9, single point; hit rate 0.47% among 350,000; Protein AF-9 (Homo sapiens), P42568; inhibition, % at 10 µM;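 active means every replicate reaching a set inhibition limit, whatever the replicate mean, cut at about 25% in these data; inconclusive means mean inhibition reaches that limit but some replicates miss it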;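 further: 0% = plate neutral control median and 100% = total signal loss; the record names both 10 and 1 µM as test concentration; the first replicate is given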
Target sequence (P42568 whole entry, looked up): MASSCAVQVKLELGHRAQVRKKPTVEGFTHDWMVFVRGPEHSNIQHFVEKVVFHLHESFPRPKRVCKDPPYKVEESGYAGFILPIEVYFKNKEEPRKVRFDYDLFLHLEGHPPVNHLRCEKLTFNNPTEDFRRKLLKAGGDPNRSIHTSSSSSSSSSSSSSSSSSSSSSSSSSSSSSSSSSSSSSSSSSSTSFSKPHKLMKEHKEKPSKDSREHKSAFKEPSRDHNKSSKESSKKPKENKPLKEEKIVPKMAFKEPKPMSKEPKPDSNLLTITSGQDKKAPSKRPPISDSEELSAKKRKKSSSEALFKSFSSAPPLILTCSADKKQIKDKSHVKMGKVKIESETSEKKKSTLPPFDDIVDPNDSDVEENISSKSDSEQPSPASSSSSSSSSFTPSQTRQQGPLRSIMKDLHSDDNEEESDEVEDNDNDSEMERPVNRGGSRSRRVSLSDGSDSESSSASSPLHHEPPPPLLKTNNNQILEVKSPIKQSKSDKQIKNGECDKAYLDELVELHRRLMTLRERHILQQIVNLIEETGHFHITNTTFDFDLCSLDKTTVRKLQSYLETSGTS
RanGTP-Imp inh: inhibitors of RanGTP-importin-beta interaction, primary screen, biochemical, FRET, CFP-Ran, YFP-importin-beta, homogeneous | Ran GTPase (GTP-bound) - importin-beta complex | inhibition, % (test concentration not listed) | cell-free CFP-Ran/YFP-importin-beta FRET ratio | hit rate 1.1% among 300,000 | AID 2216, 2009;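 active means most replicates above 15%; inconclusive means exactly half above 15%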;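 further: 0% = DMSO wells and 100% = Ran loaded with GDP instead of GTP; wells of about 40 µL received 100 nL stock; the first replicate is given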
Bfl-1 A1 inh: caspase 3/7 activation in MEF A1-2A-BIM cells, primary screen, A1 inhibitor project, cell-based, luminescence, HTS | Caspase-Glo 3/7 luminescence, 3 h; percent of clofoctol response, vehicle zero | AID 2462, 2010 | hit rate 0.066% among 330,000 | caspase activation, % (no concentration beside the values);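 active means over half of replicate activation scores above 10%, or exactly half above 10 with the replicate mean above 10; inconclusive means replicate mean below 10 yet half the replicates above 10; inactive means over half of replicates below 10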;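 further: wells of about 30 µL received 50 nL stock; many hits fall short of the cut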
T cruzi inh: inhibitors of intracellular T. cruzi growth, primary screen, luminescence, NIH3T3 host cells. T. cruzi beta-gal in NIH3T3, 90 h. inhibition, % (test concentration not listed). hit rate 1.4% among 300,000. AID 1885, 2009;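 active means mean inhibition across valid replicates above about 55%, limit read from the data; inconclusive means mean below that limit but half or more replicates reach it; inactive means mean below it, under half of replicates reach it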;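 further: signal also drops with host cell toxicity which is not excluded here; 0% = plate median of DMSO wells and 100% = zero luminescence signal; higher percent means less beta-gal luminescence so fewer parasites; stock transfer was 50 nL into about 50 µL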
Calb FLC: C. albicans growth inhibition with fluconazole, primary screen, CaCi-2 strain, Alamar Blue fluorescence | hit rate 0.57% among 300,000 | C. albicans CaCi-2 (fluconazole-resistant clinical isolate) + fluconazole, 48 h | growth inhibition, % (test concentration not listed);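 active means most replicates above 75%; inconclusive means exactly half above 75%; inactive means most below 75%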;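 further: all wells also contain fluconazole at 8 µg/ml as a sub-toxic cotreatment; 0% = median of DMSO wells and 100% = median of geldanamycin control wells; wells of about 8 µL received 7.5 nL stock; the first replicate is given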
Beta cell apopt: inhibitors of cytokine-induced beta cell apoptosis, primary screen, luminescence; AID 435005, 2010; INS-1E cytokine-induced death, ATP luminescence, 48 h; percent of positive-control rescue, neutral wells zero; protection from apoptosis, % (no concentration beside the values); hit rate 0.8% among 300,000;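 active means all replicates at 75% or more, or half of them and the mean; inconclusive means half reach 75% but not the mean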;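 further: 0% = cytokine-treated negative control wells and 100% = positive control rescue; higher means more ATP so stronger rescue from cytokine killing; wells of about 40 µL received 100 nL stock; the first replicate is given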
Vif A3G: inhibitors of Vif binding to APOBEC3G peptide, primary screen, biochemical, TR-FRET, GST-Vif 1-94, biotin-A3G peptide, dose response retest (AID 1117319). TR-FRET GST-Vif / biotin-A3G peptide binding; higher % means a stronger effect; test concentration not given here; strong numbers were not always called active. inhibition, %; hits with a dose series show IC50 in µM. hit rate 0.57% among 260,000;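 active means above the screen mean plus three standard deviations and confirmed in dose response; inconclusive means results disagree or hit not tested in dose response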;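 further: Vif residues 1-94 fused to GST binding biotinylated APOBEC3G peptide 110-148; 0% = full assay without inhibitor and 100% = GST in place of GST-Vif; retest series ran down from 100 µM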
Ecoli rRNA inh: reduced GFP signal of wild-type E. coli, primary screen, bacterial rRNA inhibitor project, GFP/RFP fluorescence, OD600, single point; E. coli WT GFP vs humanized-ribosome RFP mutants, 24 h; hits give low values; DMSO median 0, no signal -100; GFP signal change (wild-type ribosome), % (concentration not given with the values); hit rate 1.6% among 350,000; AID 720706, 2013;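 active means significant combined selectivity score with lowered wild-type GFP, culture density cut under 30%, mutant RFP and density less affected; inactive means any of these conditions unmet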; further: one replicate is shown; some compounds called inactive have numbers as strong as hits
Ecoli rRNA inh OD600: recorded beside Ecoli rRNA inh, whose call it bears; OD600 change, %; measured here: OD600 growth;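 optical density of the mix in the first replicate; 0 = DMSO median and -100 = no signal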
Ecoli rRNA inh RFP: further read-out of Ecoli rRNA inh, marked with its call; RFP signal change, %; measured here: RFP humanized mutant strains;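 first replicate; 0 = DMSO median and -100 = no signal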
* = called active by the depositor; ? = inconclusive; . = no result given; & = joins results of further samples. The list is partial; count on the stated rates, not on these rows.

Preview:
SMILES	MLL AF4-AF9 inh	RanGTP-Imp inh	Bfl-1 A1 inh	T cruzi inh	Calb FLC	Beta cell apopt	Vif A3G	Ecoli rRNA inh	Ecoli rRNA inh OD600	Ecoli rRNA inh RFP
Cc1cc2[nH]c(=O)cc(-c3ccccc3)n2n1	1.9	-4.5	-5.4	-12	0	2	.	-7	-5	-1.2
Cc1ccc(NC(=O)CSc2nnc(Cn3cnc4ccccc43)o2)c(C)c1	.	-3.1	1.8	-2	0	1	4%	.	.	.
O=C(OCC(=O)N1CCCC1=O)c1cc(Cl)ccc1O	-1.3	.	-0.4	-8	-3	-3	7%	4	4	-1.6
N#CCSc1nc(-c2ccccc2)c2cc(Cl)ccc2n1	.	2.0	1.1	15	8	6	-3%	.	.	.
O=C1c2cnccc2CN1Cc1ccccc1	.	-3.5	0.3	2	0	-5	-1%	.	.	.
O=C(O)c1ccccc1CSc1ccccn1	-1.1	0.6	0.6	0	-2	2	5%	16	10	1.0

Main list, from the start:
SMILES	MLL AF4-AF9 inh	RanGTP-Imp inh	Bfl-1 A1 inh	T cruzi inh	Calb FLC	Beta cell apopt	Vif A3G	Ecoli rRNA inh	Ecoli rRNA inh OD600	Ecoli rRNA inh RFP
Cc1cc2[nH]c(=O)cc(-c3ccccc3)n2n1	1.9	-4.5	-5.4	-12	0	2	.	-7	-5	-1.2
Cc1ccc(NC(=O)CSc2nnc(Cn3cnc4ccccc43)o2)c(C)c1	.	-3.1	1.8	-2	0	1	4%	.	.	.
O=C(OCC(=O)N1CCCC1=O)c1cc(Cl)ccc1O	-1.3	.	-0.4	-8	-3	-3	7%	4	4	-1.6
N#CCSc1nc(-c2ccccc2)c2cc(Cl)ccc2n1	.	2.0	1.1	15	8	6	-3%	.	.	.
O=C1c2cnccc2CN1Cc1ccccc1	.	-3.5	0.3	2	0	-5	-1%	.	.	.
O=C(O)c1ccccc1CSc1ccccn1	-1.1	0.6	0.6	0	-2	2	5%	16	10	1.0
CCN(CC)CC(=O)Nc1ccc(-c2ccc(NC(=O)CN(CC)CC)c(OC)c2)cc1OC	1.1	-1.2	0.0	52	1	0	-8%	-23*	-14*	1.7*
CN(C)/C=N/C(=S)Nc1cc(Cl)cc(Cl)c1	0.7	-2.2	1.9	-2	-1	1	?	-13	-7	-1.8
CCOC(=O)N1CCN=C1SCc1ccc(Cl)c(Cl)c1	1.7	2.2	-0.2	-7	4	-14	.	7	8	-3.7
CCC(Oc1ccccc1)C(=O)Nc1ccc(S(=O)(=O)NCC2CCCO2)cc1 (stereo unspecified)	.	1.4	-1.9	-6	-7	-2	13%	.	.	.
C=CCNC(=O)CSc1nc2cc(C(=O)OCC)ccc2n1CC	-38	6.3	0.8	5	6	-1	0%	-43*	-27*	-8.8*
C=CCn1c(-c2cccn(Cc3ccc(Cl)cc3Cl)c2=O)n[nH]c1=S	.	-3.4	0.5	0	11	2	-12%	.	.	.
Cc1ccc(NC(=S)N(Cc2ccccc2)Cc2cccs2)c(C)c1	1.4	?	-0.7	-12	-5	-2	-6%	5	20	0.5
COc1ccc(NC(=O)c2c(Nc3ccccc3)sc(C(=O)c3ccc(F)cc3)c2N)cc1	.	?	-0.2	7	-8	104*	6%	.	.	.
C[C@H]1CN([C@@H](C)CO)C(=O)Cc2cc(NC(=O)Cc3ccccc3)ccc2O[C@H]1CN(C)S(=O)(=O)c1cccs1	3.2	.	-0.1	.	.	-2	.	-1&-5	-1&-5	2.4&25
CCCCCCCCCCCC(=O)N1CC(=O)NC(=O)C1	-1.3	1.4	-0.6	7	1	-7	.	1	3	1.9
Cc1cccc(OCCC(=O)Nc2ccccc2C(N)=O)c1	-3.1	-4.7	0.5	-14	-2	.	.	0	-11	0.6
CCCCN(CC)CCNc1c(NC2CCN(C(=O)OCC)CC2)c(=O)c1=O	0.3	-2.6	0.1	-10	7	-9	1%	10	7	5.5
O=[N+]([O-])c1cc([N+](=O)[O-])c(Oc2ccc(F)cc2F)cc1NN1CCCCC1	-1.4	0.9	-0.8	-18	2	6	.	13	12	1.3
Cc1ccccc1OCC(O)Cn1c(NCc2ccco2)nc2c1c(=O)n(C)c(=O)n2C (stereo unspecified)	5.2	2.4	-0.7	-4	-3	1	-6%	-26*	-8.8*	2.1*
CCOc1ccc(C2C(C#N)=C(C)NC3=C2C(=O)c2ccccc23)cc1 (stereo unspecified)	.	-1.2	-0.8	42	-7	18	-3%	.	.	.
Cc1onc(-c2ccccc2)c1C(=O)NCCc1ccc(S(N)(=O)=O)cc1	.	1.7	.	-24	-3	-9	27%	.	.	.
CCSc1ccccc1C(=O)Nc1nncs1	.	0.3	-0.2	-7	-4	6	-1%	.	.	.
Cc1ccc(NC(=O)C2CCCO2)c(Br)c1 (stereo unspecified)	0.0	4.6	0.1	-1	-3	-10	.	-4	-8	-3.7
Cc1ccccc1C(=O)NCC(=O)OCCOc1ccc(C(C)C)c(C)c1	-2.2	1.8	0.2	-16	2	-5	-4%	-8	-12	2.8
COc1ccc(NC(=O)CCc2nnc3ccc(N4CCN(c5cccc(OC)c5)CC4)nn23)cc1	1.8	-0.2	-0.6	-1	7	5	.	-5	-8	-0.8
CCn1c(=O)cc(OCC(=O)NCCCN2CCC(C)CC2)c2ccccc21	.	1.8	1.1	6	5	.	?	.	.	.
C=CCC1c2cccc(C(=O)O)c2C(=O)N1c1ccc(F)cc1 (stereo unspecified)	.	-1.1	0.2	-11	-1	-1	11%	.	.	.
COc1ccc(C(=O)CCC(=O)O)cc1	3.9	?	0.0	-16	3	.	3%	6	7	0.3
CC(=O)NCc1ccc(-c2csc(NC(=O)CCc3nc4ccccc4c(=O)[nH]3)n2)s1	-3.5	.	0.3	.	.	1	-3%	-6	-6	0.7
Cc1csc(NC(=O)c2ccc(Cl)nc2)n1	-1.5	-2.1	1.1	10	-1	-4	3%	4	6	0.1
CCOc1ccc2oc(-c3ccccc3)c(C(=O)N3CCN(C)CC3)c2c1	.	-2.6	0.2	15	5	2	20%	.	.	.
COc1ccc(C(=O)c2c[nH]c(C(=O)NCc3ccco3)c2)cc1	.	4.3	0.0	9	8	1	5%	.	.	.
Fc1ccccc1N1CCN(C2CCCN(Cc3ccccc3C(F)(F)F)C2)CC1 (stereo unspecified)	-0.6	3.3	0.0	14	-4	.	.	-43	-75	-16
COc1ccc(-c2[nH]ncc2-c2cscn2)c(O)c1	-1.6	3.2	1.4	-20	-6	.	6%	18	17	-0.5
COc1ccc2[nH]cc(CCNC(=O)c3ccccc3Cl)c2c1	0.5	8.7	0.7	-2	-8	0	2%	4	9	1.3
O=C(CN1CCOc2ccccc21)N1CCC(Cc2ccccc2)CC1	8.8	7.1	-0.4	-6	12	-2	-6%	-17	-20	-2.0
Cn1c(SCC(=O)NCC2CCCO2)nnc1-c1ccc(Cl)cc1 (stereo unspecified)	-4.0	.	0.6	.	.	-23	-7%	6	12	-0.2
COc1ccc(C)cc1S(=O)(=O)N1CCN(C(=O)c2ncoc2-c2ccc(C)cc2)CC1	0.4	-1.2	-0.4	21	-3	-1	.	-8	-7	-0.5
O=C1C2C3C=CC(C3)C2C(=O)N1CCN1CCN(S(=O)(=O)/C=C/c2ccccc2)CC1 (stereo unspecified)	0.3	4.7	0.8	-3	0	-3	11%	0	-2	1.6
CCCCCc1c(C)nc(Nc2ccccc2)[nH]c1=O	.	6.8	0.5	-3	7	13	1%	.	.	.
COc1ccc(CCCC(=O)N/N=C/c2ccc(C)cc2)cc1	1.6	-1.0	-0.6	8	-5	-3	-6%	-12	-9	1.8
Cc1ccc2nc(SCC(=O)c3ccc4c(c3)OCO4)[nH]c2c1	.	-0.2	-0.3	8	-6	-4	8%	-23*	-9.2*	-1.4*
CSc1nccc(Oc2cccc(C#N)c2)n1	-18	-3.4	-1.5	5	-8	-6	.	-2	-1	-3.2
Cc1cccc(C)c1N1C(=O)C(Cl)=C(N2CCCC2)C1=O	-2.2	0.3	1.2	-5	7	-2	.	-22	-22	-3.2
O=C(O)CC1Sc2nc3ccccc3n2C1=O (stereo unspecified)	.	3.2	?	-6	-4	3	-3%	.	.	.
O=C(Nc1ccncc1)C1CCN(S(=O)(=O)c2cccs2)CC1	0.4	0.0	-0.3	-6	-8	4	2%	4	-1	3.0
Cc1noc(C)c1CSCC(=O)N(CC(C)C)c1c(N)n(Cc2ccccc2)c(=O)[nH]c1=O	-0.9	.	0.4	-5	0	-3	-4%	9	10	1.8
O=C(CCc1nnc(-c2ccsc2)o1)N1CCCCC1CCn1ccnc1 (stereo unspecified)	-1.4	?	-0.1	-9	-5	-4	-5%	9	2	0.2
CCCn1nnc(NC(=O)c2ccc3c(c2)OCO3)n1	-1.6	-1.1	-0.6	-10	4	-6	-1%	11	2	-1.7
CCOC(=O)N1CCC(Nc2c(NCCCN(C)Cc3ccccc3)c(=O)c2=O)CC1	1.9	-0.9	-0.9	-12	-5	.	2%	12	6	1.8
CSc1ccccc1OCc1cc(C(=O)N2CCN(C)C(c3ccccc3)C2)no1 (stereo unspecified)	1.4	0.2	1.0	2	2	0	.	-30	-37	-0.5
CCC(C)N(C(=O)CSc1nc(-c2ccccc2)cs1)C1CCS(=O)(=O)C1 (stereo unspecified)	.	7.8	0.6	0	13	1	0%	.	.	.
CN(Cc1ccccc1)C(=O)COC(=O)/C=C/c1ccc2c(c1)OCO2	4.4	.	-0.6	.	.	0	.	-3	-31	-2.6
CCOc1ccc(S(=O)(=O)Nc2ccc(C(=O)N/N=C(\C)c3ccc(-n4ccnc4)cc3)cc2)cc1	.	1.8	0.3	11	2	-2	7%	.	.	.
Cc1ccc(N(C(=O)c2ccncc2)C2C=CS(=O)(=O)C2)cc1 (stereo unspecified)	-3.6	2.6	-0.3	-9	-3	.	6%	11	-4	-2.0
Cc1ccc(-c2nc3c(cnn3-c3ccccc3)c(=O)o2)cc1	4.5	1.6	-0.8	2	-2	-6	-7%	15	15	3.2
